LANA-H2B inh – blockers of LANA interaction with H2A/H2B – biochemical, FP readout, HTS, primary screen; Protein LANA1 (Human herpesvirus 8 type P (isolate GK18)), Q9QR71; actives 0.6% (n = 320,000); inhibition, % (concentration not given with the values); cell-free LANA-H2A/H2B peptide, fluorescence polarization; in the data active means inhibition mostly above about 10%, no sharp cut-off; inactive means mostly below about 6.7%;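 further: stock transfer was 7.5 nL into about 10 µL; 0% = median of vehicle wells and 100% = median of positive control wells; one replicate is shown; the record names a cut of 25% in any replicate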
ALR H2O2 inh – inhibitors of human ALR sulfhydryl oxidase, primary screen, biochemical, H2O2 detection, HRP-luminol luminescence, single point | AID 485317, 2010 | FAD-linked sulfhydryl oxidase ALR (Homo sapiens), P55789 | inhibition, % (test concentration not listed) | actives 3.8% (n = 290,000) | purified ALR, DTT oxidation;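 active means mean and each replicate at 75% or more; inconclusive means only one of the two met; inactive means neither met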;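 further: stock transfer was 7.5 nL into about 7.5 µL; 0% = neutral wells and 100% = wells with inactivated enzyme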
Target sequence (P55789 whole entry, looked up): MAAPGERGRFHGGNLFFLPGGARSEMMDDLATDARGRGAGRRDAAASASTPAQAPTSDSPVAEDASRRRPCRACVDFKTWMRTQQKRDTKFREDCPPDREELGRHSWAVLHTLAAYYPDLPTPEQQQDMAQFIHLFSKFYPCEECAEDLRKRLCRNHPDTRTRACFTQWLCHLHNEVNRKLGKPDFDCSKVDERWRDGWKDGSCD
Beta2AR agonist – beta2AR agonists driving receptor internalization, primary screen, cell-based, FAP fluorogen, flow cytometry. Beta-2 adrenergic receptor (Homo sapiens), P07550. response, % (test concentration not listed). actives 0.43% (n = 340,000). Am2.2-beta2AR cells; reference of the scale not given here;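 active means response above a set limit, near 3 SD of response in nonfluorescent compounds, cut at about 42% in these data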;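 further: stock transfer was 100 nL into about 11 µL; a reference agonist was the positive control; negative values mostly stem from fluorescent compounds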
Target sequence (P07550 whole entry, looked up): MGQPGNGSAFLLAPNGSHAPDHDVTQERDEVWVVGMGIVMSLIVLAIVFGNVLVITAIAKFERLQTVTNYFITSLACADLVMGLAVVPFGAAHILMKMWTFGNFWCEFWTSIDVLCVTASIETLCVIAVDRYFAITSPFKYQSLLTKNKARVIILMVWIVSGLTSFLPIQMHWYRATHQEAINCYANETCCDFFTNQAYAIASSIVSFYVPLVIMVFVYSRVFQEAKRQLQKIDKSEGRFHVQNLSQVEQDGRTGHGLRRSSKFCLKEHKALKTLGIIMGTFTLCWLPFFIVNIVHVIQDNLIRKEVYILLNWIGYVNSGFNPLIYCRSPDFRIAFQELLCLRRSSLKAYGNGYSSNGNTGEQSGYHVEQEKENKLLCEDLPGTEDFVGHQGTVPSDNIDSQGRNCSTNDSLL
Ecoli growth – E. coli growth inhibition, primary screen, OD600. actives 0.21% (n = 330,000). OD600 absorbance (no concentration beside the values). Escherichia coli growth, 23 h; active compounds read low;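 active means OD600 absorbance below the run mean of sample wells minus 3.6 SD, in any replicate, cut at about 0.56 in these data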;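 further: stock transfer was 300 nL into about 60 µL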
FGF22 binding – binders of human FGF22 protein, primary screen, FGF22 synaptogenesis inhibitor project, biophysical, thermal shift, single point | Fibroblast growth factor 22 (Homo sapiens), Q9HCT0 | recombinant FGF22 thermal shift, SYPRO orange fluorescence; percent of sucrose octasulfate shift, DMSO zero | calls only at 9.99 µM | actives 1.5% (n = 340,000);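 active means melting point raised past a set limit in the mean and every replicate; inconclusive means no clear call; three in four hits are not shown here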
HNF4A DNA FP – change in binding of human HNF4A to DNA, primary screen, biochemical, fluorescence polarization, FITC-DNA. Hepatocyte nuclear factor 4-alpha (Homo sapiens), P41235. 1 h. activity change, % at 10 µM. actives 0.3% (n = 360,000); in the data active means activity change above about 30%, passing the limit was not always enough;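 further: controls were the assay level and a saturating level of protein; the project sought stronger binding though the title names inhibitors; some compounds called inactive have numbers as strong as hits; positive values seem to mean higher polarization but the record does not say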
UCH37 DUB inh – inhibitors of human UCH37 deubiquitinase, primary screen, biochemical, Ub-AMC cleavage, fluorescence | Ubiquitin carboxyl-terminal hydrolase isozyme L5 (Homo sapiens), Q9Y5K5 | purified proteasome/UCH37 | inhibition, % (test concentration not listed) | actives 0.33% (n = 330,000) | AID 588478, 2011;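 active means mean of two replicates above 20%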;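 further: 0% = compound-free wells with enzyme and 100% = wells lacking proteasome; stock transfer was 100 nL into about 20 µL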
Target sequence (Q9Y5K5 whole entry, looked up): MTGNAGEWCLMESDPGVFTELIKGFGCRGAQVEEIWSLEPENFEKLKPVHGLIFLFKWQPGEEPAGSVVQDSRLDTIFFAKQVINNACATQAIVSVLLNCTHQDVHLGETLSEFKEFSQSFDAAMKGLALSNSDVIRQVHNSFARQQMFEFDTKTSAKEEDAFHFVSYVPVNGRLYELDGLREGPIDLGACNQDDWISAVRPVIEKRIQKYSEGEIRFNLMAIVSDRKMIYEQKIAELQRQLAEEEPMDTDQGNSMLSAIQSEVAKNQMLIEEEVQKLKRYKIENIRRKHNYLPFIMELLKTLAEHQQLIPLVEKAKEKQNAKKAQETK
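Reagent: Ub-AMC substrate; assay system: Proteasome-associated human UCH37 deubiquitinase; controls: no-proteasome and no-compound wells; read-out: % inhibition of Ub-AMC cleavage fluorescence; timing: 30 min preincubation with enzyme, 25 min cleavage at room temperature; signal: AMC fluorescence from Ub-AMC cleavage, excitation 355 nm, emission 460 nm; buffer or medium: Tris-HCl pH 7.4 plus ovalbumin, ATP-MgCl2, DTT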
An asterisk follows results filed as active; i = inactive; ? = inconclusive; nt = no result given. A portion of the library; count on the stated rates, not on these rows.

SMILES	LANA-H2B inh	ALR H2O2 inh	Beta2AR agonist	Ecoli growth	FGF22 binding	HNF4A DNA FP	UCH37 DUB inh
COc1ccc(C(CNC(=O)c2oc3c(Cl)cccc3c2C)N2CCCC2)cc1 (centres undefined)	22*	21	-3	0.69	i	-0.2	3.8
CCN(C(=O)Cc1c(C(=O)O)n(C)c2ccccc12)c1cccc(C)c1	-3.3	-1	-7	0.68	i	-5.2	4.5
O=C(CCCN1C(=O)/C(=C/c2ccccc2)SC1=S)Nc1ccc(C(=O)O)c(O)c1	-1.6	4	-3	nt	i	1.3	nt
COc1ccccc1OC(C)C(=O)O (centres undefined)	-0.2	-5	2	0.64	nt	3.7	1.4
O=C(O)c1c2c(nc3ccc(S(=O)(=O)N4CCC(C(=O)NC5CCCC5)CC4)cc13)CCCCC2	-3.2	-2	-3	0.75	i	-4.4	7.3
NS(=O)(=O)c1ccc(N/N=C/C=C/c2ccccc2[N+](=O)[O-])cc1	-2.2	30	9	nt	i	3.9	nt
O=C(O)CCC(=O)OCCc1cc2ccccc2c(=O)o1	0.9	4	1	0.68	i	1.7	1.1
CN(C)c1ccc(CNC(=O)C2CCN(S(=O)(=O)c3ccc4c(c3)CCCC(=O)N4)CC2)cc1	-2.2	98*	-3	0.73	i	6.4	2.9
O=C(O)c1ccc(Nc2nc(-c3ccccc3)c3ccccc3n2)cc1	-4.0	2	-1	0.67	i	2.6	1.2
CC(=O)Nc1cc(C(F)(F)F)ccc1OCCOc1ccccc1	3.3	-18	-16	0.68	nt	-3.9	1.7
O=C(CSc1ccc2nnc(CCNC(=O)c3ccccc3)n2n1)NCCc1ccccc1	1.5	24	-7	0.72	i	1.5	-0.1
O=C(CN1C(=O)C2CC=CCC2C1=O)NC1=NCCS1 (centres undefined)	-2.6	39	-1	0.73	nt	1.2	0.7

An excerpt from above, showing only Ecoli growth, LANA-H2B inh and UCH37 DUB inh:
| Compound | Ecoli growth | LANA-H2B inh | UCH37 DUB inh |
| --- | --- | --- | --- |
| O=C(CN1C(=O)C2CC=CCC2C1=O)NC1=NCCS1 (centres undefined) | 0.73 | -2.6 | 0.7 |
| CN(C)c1ccc(CNC(=O)C2CCN(S(=O)(=O)c3ccc4c(c3)CCCC(=O)N4)CC2)cc1 | 0.73 | -2.2 | 2.9 |

Other records:
SMILES	LANA-H2B inh	ALR H2O2 inh	Beta2AR agonist	Ecoli growth	FGF22 binding	HNF4A DNA FP	UCH37 DUB inh
CCCCC1(CC(=O)OCC)C(=O)N(c2ccccc2)N(c2ccccc2)C1=O	1.4	0	4	0.69	i	-3.5	1.6
Cc1cccc(C)c1N1C(=O)c2ccccc2C1=O	6.2	-11	1	0.68	i	-2.0	2.2
CCN(CC)CCN1C(=O)C(=O)/C(=C(/O)c2c(C)[nH]c(C(=O)OC)c2C)C1c1cccs1 (centres undefined)	2.7	-9	-7	0.66	nt	2.5	11
COc1ccc(NC(=O)C2CCCO2)cc1OC (centres undefined)	0.9	-14	1	0.64	i	-1.6	6.0
Cc1ccc(S(=O)(=O)c2ccc(Cl)cc2)cc1S(=O)(=O)NC(C)C(=O)O (centres undefined)	1.7	11	-3	0.69	nt	-3.1	-1.4
COc1ccc(C(=O)NC(C(=O)NCC2(N3CCCCC3)CCCCC2)C(C)C)cc1 (centres undefined)	-0.7	-24	1	0.68	i	1.3	1.1
O=C(c1ccc2nccnc2c1)N1CCN(Cc2ccc3c(c2)OCO3)CC1	-1.6	-1	-10	0.7	i	-2.7	3.4
NC(=O)C1CCN(C(=O)c2ccc3nc(-c4ccccc4)c(-c4ccccc4)nc3c2)CC1	-0.9	-5	3	0.65	i	-2.1	-414
COC(=O)c1[nH]c2ccc(C)cc2c1NC(=O)Nc1ccccc1OC	-3.2	97*	15	0.72	nt	-1.5	-11
CN(C(=O)COC(=O)CNC(=O)c1sc2ccccc2c1Cl)c1ccccc1	6.9	-5	0	0.66	i	-1.4	2.2
COC(=O)c1ccc(NS(=O)(=O)c2ccc3c(c2)oc(=O)n3C)cc1	2.1	nt	-9	0.73	i	-1.4	1.5
COc1ccc(OC)c(NC(=O)COC(=O)[C@H](Cc2ccccc2)NC(=O)c2ccco2)c1	-4.9	-1	7	0.71	i	-1.0	3.0
Cc1ccc2cc(CCNC(=O)c3ccco3)c(=O)[nH]c2c1C	2.0	-4	-20	0.68	i	-1.3	-0.1
CC/C(=C\C1CCCCC1)C(NP(=O)(c1ccccc1)c1ccccc1)c1ccccc1 (centres undefined)	-5.2	nt	14	nt	i	-0.3	nt
COc1cc(OC)c(C(=O)NC2CC(C)(C)NC(C)(C)C2)cc1OC	-6.6	-3	15	0.67	nt	-1.9	1.6
COc1ccc(-c2c(N)n[nH]c2C)cc1OC	-0.6	58	3	0.68	i	-7.8	4.2
CC(=O)NC(=S)Nc1ccc([N+](=O)[O-])cc1C	0.8	2	-4	0.7	i	-1.9	5.2
CCC(=O)NN1CCc2cc3ccc(C)cc3nc21	1.1	-1	-2	0.69	i	1.2	-128
COc1ccc([N+](=O)[O-])cc1NC(=O)COC(=O)c1ccccn1	-1.6	-7	3	0.7	nt	-1.2	8.3
CC(C)Cc1nc(SCC(=O)Nc2nnc(CC(C)C)s2)n[nH]1	-2.8	0	-1	0.64	i	0.8	3.6
CCN(CC(=O)Nc1ccc2c(c1)OCCO2)C(=O)CCc1ccccc1Cl	-1.9	-4	0	0.66	i	-1.4	2.8
Clc1cnc2nc(SC/C=C/c3ccccc3)[nH]c2c1	2.0	0	-6	0.65	i	-6.2	6.0
Cc1ccc(-n2cc(CN(C)Cc3ncc[nH]3)c(-c3cccc(C)c3)n2)cc1	2.9	31	11	0.61	i	2.0	2.5
CCOC(=O)COc1ccc(S(=O)(=O)N2CCc3ccccc3C2)cc1	2.3	-1	0	0.65	nt	-4.4	0.4
COC(=O)c1ccnc(/C=N/O)c1	-3.4	11	-3	nt	nt	-0.3	nt
c1ccc(CCN(Cc2ccccc2)Cc2nc(C3CC3)no2)cc1	3.9	-3	3	0.71	i	0.1	-1.6
C[C@H](NC(=O)[C@H]1N2C(=O)c3ccccc3C2SC1(C)C)C(=O)N1CCCCC1 (some centres undefined)	5.7	-6	-8	0.69	i	0.5	1.8
COc1ccc(NC(=O)NCCN2CCN(c3cc(OC)ccc3OC)CC2)cc1	-4.0	13	-9	0.65	i	0.8	5.7
CSc1ccc(Cl)c(C(=O)N2CCN(CC(=O)N3CCCC3)CC2)c1	-0.3	-9	-8	0.7	i	-3.6	3.3
CC(C)(C)OC(=O)N(CCc1ccccc1)Cc1cccc(OCc2cccc(NC(=O)/C=C/c3ccccc3)c2)c1	nt	nt	3	nt	i	-1.5	nt
Cc1cc(-c2nc3cccnc3s2)ccc1NS(=O)(=O)c1ccc2c(c1)OCCO2	1.6	-3	-9	0.79	i	5.9	-192
CC(=O)Oc1ccc(S(=O)(=O)c2ccc(OC(C)=O)cc2)cc1	4.2	nt	3	0.66	i	-2.3	-3.8
CC(C)C(C(=O)O)N1C(=O)/C(=C/C=C/c2ccco2)SC1=S (centres undefined)	6.1	99*	-1	0.7	nt	-24	5.4
COc1cc(/C=N/NS(=O)(=O)c2ccccc2)c(OC)c(OC)c1	-0.3	21	1	nt	i	0.6	nt
Cc1ccsc1/C=N/n1c(-c2cc(-c3ccccc3)n[nH]2)n[nH]c1=S	0.2	-6	-2	nt	i	-5.3	nt
COC(=O)c1cc(C(=O)OC)cc(N2C(=O)CC(NNC(=O)c3ccccc3Br)C2=O)c1 (centres undefined)	4.8	15	8	0.64	nt	-0.7	0.2
COc1ccc(/C=N/Nc2ncc(C(F)(F)F)cc2Cl)cc1OC	-2.7	4	1	nt	i	-5.6	nt
C=C(C)[C@@H]1CC=C(CN2CCC(CCOC)(C(=O)OCC)CC2)CC1	0.6	nt	-2	0.64	i	3.8	1.0
CC(C)(C)Nc1nc2nonc2nc1NC(C)(C)C	4.9	nt	0	0.63	i	4.0	5.3
CN1/C(=C\C(=O)COC(=O)c2ccco2)C(C)(C)c2ccccc21	0.8	-52	-8	0.63	nt	2.9	-36
COc1ccc(N2C(=O)CCC(C(=O)NCCCN3CCC(C)CC3)C2c2ccc(OC)c(OC)c2)cc1 (centres undefined)	-3.3	-10	-4	0.73	i	-1.9	0.5
Cc1nn(-c2ccccc2)c2c1C1(C(=O)Nc3ccccc31)N1C(=N2)Sc2ccccc21 (centres undefined)	6.5	6	12	0.69	nt	1.3	7.1
CCOc1cc(/C=C2\SC(=O)N(c3ccc(O)cc3)C2=O)ccc1O	-2.3	?	-4	0.67	i	8.2	3.3
CCOc1ccc(NC(=O)CCC(=O)c2ccc(-c3ccccc3)cc2)cc1	2.3	-1	1	0.73	nt	5.7	1.2
COc1ccc(C2Nc3ccccc3C(=O)N2NS(=O)(=O)c2ccccc2)cc1OC (centres undefined)	2.3	-4	-1	0.68	i	4.7	-140
N=c1sccn1CC(=O)Nc1ccc(Cl)cc1[N+](=O)[O-]	-1.5	-9	-8	0.68	i	1.5	2.7
CCOC(=O)[C@H]1[C@H]2COc3ccccc3[C@@H]2N2C(=O)[C@@H](C)NC(=O)[C@@]12C	2.7	-9	1	nt	nt	-7.3	2.4
COc1ccc2c(C)cc(N3CCCCCC3)nc2c1	-1.7	14	-1	0.65	i	6.4	-2.6
CCCCN(C(=O)c1ccc([N+](=O)[O-])o1)c1c(N)n(CC(C)C)c(=O)[nH]c1=O	-1.3	-26	5	nt	i	-1.1	nt
CCCN(CCO)Cc1ccc2ccccc2c1	4.1	-4	-1	0.64	i	-1.8	1.2
O=C(CN1CCN(Cc2ccccc2)CC1)N/N=C/C=C/c1ccco1	3.3	-37	6	nt	nt	2.0	nt
CCOC(=O)CCc1c(C)c(C#N)c2[nH]c3ccccc3n2c1=O	3.7	-11	7	0.67	nt	-1.6	-323
O=C(CCNC(=O)c1ccc([N+](=O)[O-])cc1)Nc1cccc(S(=O)(=O)N2CCCCC2)c1	1.4	-2	-1	0.7	i	1.8	-2.0
COc1ccc(-c2cc(C(=O)NCCCn3ccnc3)no2)cc1OC	-4.0	-6	2	0.65	nt	0.9	3.8
